UPR CHOP act: activators of apoptotic arm of unfolded protein response (CHOP); activation, % at 10 µM; hit rate 0.34% among 330,000; CHO-CHOP luciferase reporter, UPR activation, luminescence; percent of tunicamycin response over DMSO baseline; AID 449763;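 active means at 10 µM dose, activation of 40% or more, normalized to positive control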;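 further: 100% = tunicamycin at 10 µg/mL and 0% = DMSO alone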
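Assay system: CHO-CHOP cells, stable luciferase reporter of PERK-eIF2a-CHOP signalling / Buffer or medium: F12 plus 10% serum / Compound dosing: one dose, 10 µM in 0.5% DMSO / Times: 6 h compound treatment, 37 °C / Technique: luciferase luminescence / Read-out: % reporter activation, DMSO baseline versus tunicamycin full activation / Benchmarks: tunicamycin and DMSO controls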
XBP1 UPR activ: adaptive UPR (XBP1) activation; CHO-XBP1 luciferase reporter, IRE1-XBP1 UPR activation, luminescence; percent of tunicamycin response, DMSO as zero; activation, % at 20 µM; hit rate 0.33% among 330,000;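 active means versus positive control, 20 µM dose yields 30% or more activation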;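 further: 100% = tunicamycin at 10 µg/mL and 0% = DMSO only wells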
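Material: CHO-XBP1 cells stably carrying IRE1-XBP1-driven luciferase reporter / Amount: 1000 cells per well / Compound: 20 µM, 1% DMSO / Times: 6 h treatment, 37 °C / Detection: luciferase luminescence / Measure: % activation of reporter signal versus tunicamycin and DMSO controls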
tim10-1 inh: tim10-1 yeast growth inhibition. hit rate 2.2% among 330,000. S. cerevisiae tim10-1 ts strain growth, BacTiter-Glo, 24 h. inhibition, % at 20 µM;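 active means inhibition of at least 40%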;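 further: mutant grown at 25 °C; 0% = DMSO wells with yeast and 100% = wells holding no yeast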
TIM10 inh: TIM10 yeast growth inhibition; S. cerevisiae TIM10 strain growth, BacTiter-Glo luminescence, 24 h; inhibition, % at 10 µM; hit rate 1.4% among 330,000; AID 463195;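 active means inhibition of 40% or more at the single tested concentration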;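 further: wild-type TIM10 isogenic control strain grown at permissive 25 °C; 0% = DMSO yeast wells and 100% = minimal medium wells without yeast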
tim23-1 inh: tim23-1 yeast growth inhibition; hit rate 1.3% among 330,000; inhibition, % at 20 µM; S. cerevisiae tim23-1 growth, BacTiter-Glo luminescence, 24 h;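 active means growth inhibition of the mutant yeast at or above 50%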;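 further: temperature-sensitive mutant grown at 25 °C; plate controls were DMSO-treated mutant yeast for no effect and medium wells lacking yeast for full effect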
Active calls of the source: *. A portion of the library. The share of hits here may be higher or lower than overall.

item | SMILES | UPR CHOP act | XBP1 UPR activ | tim10-1 inh | TIM10 inh | tim23-1 inh
1 | O=C1C(Cc2ccccc2)Nc2ncnc(N3CCOCC3)c2N1Cc1ccc(Br)cc1 (configuration not stated) | 1.6 | -1 | 31 | 20 | 21
2 | O=C(NCCN1CCOCC1)c1cnn2c(-c3ccccc3)cc(-c3ccccc3)nc12 | -0.3 | 1 | 30 | 26 | 16
3 | COc1ccccc1NS(=O)(=O)c1cccc(NC(=O)Nc2cccc(Cl)c2)c1 | 0.8 | 5 | 5 | 10 | 1
4 | O=C1NCCOC(=O)[C@H](Cc2ccc(F)cc2)CC/C=C/C[C@H]1CC(=O)N(CCO)Cc1ccccc1 | 0.1 | -3 | 3 | -1 | -5
5 | Cc1cccc(C)c1N(C(=O)c1ccco1)C(C(=O)NC1CCCC1)c1ccncc1 (configuration not stated) | 1.6 | 4 | -9 | 7 | 8
6 | N#C/C(=C\c1ccc(O)c(O)c1)C(=O)NCc1ccccc1 | 29 | 22 | -4 | -1 | 12
7 | O=C(C[C@@H]1C/C=C/CC[C@@H](Cc2ccc(F)cc2)C(=O)O[C@H](c2ccccc2)CNC1=O)NCCO | 0.0 | 1 | -7 | 3 | 0
8 | COc1ccc(C(=O)NC(=S)Nc2nnn(C)n2)cc1 | 1.7 | 0 | -2 | 8 | -4
9 | CC(=O)Nc1ccc(Oc2cc(N)cc([N+](=O)[O-])c2)cc1 | -2.5 | 2 | 15 | 11 | -6
10 | CN([C@@H](Cc1ccc(OS(=O)(=O)c2cccc3cnccc23)cc1)C(=O)N1CCN(c2ccccc2)CC1)S(=O)(=O)c1cccc2cnccc12 | 2.2 | -6 | 7 | 12 | 14
11 | CCC(c1nnnn1Cc1ccco1)N1CCN(c2cc(Cl)ccc2C)CC1 (configuration not stated) | 0.2 | -2 | 39 | 35 | -1
12 | CC(C)OCCCNC(=O)CCCC(=O)Nc1ccc(OCCc2ccccc2)cc1 | -0.9 | -1 | 1 | -8 | 2
13 | CC(C)CC1Nc2ncnc(N3CCN(c4ccccn4)CC3)c2N(Cc2ccc(Br)cc2)C1=O (configuration not stated) | 1.4 | 3 | 25 | 15 | 24
14 | COc1ccccc1OCC(=O)NNC(=S)NC(=O)c1ccco1 | 0.0 | -3 | 17 | 9 | -3
15 | COc1ccccc1C(=O)NNC(=O)c1nn(Cc2ccccc2)c(=O)c2ccccc12 | -1.2 | 2 | 23 | 8 | 23
16 | COC(=O)c1c(-c2ccc(OC)cc2)sc2cc3c(cc12)OCO3 | 5.3 | 7 | 20 | 11 | 36
17 | Fc1ccc(-n2cc(-c3ccccc3)c3c(N4CCOCC4)ncnc32)cc1 | -0.4 | 0 | 32 | 24 | 33
18 | Cc1cc2ncc(-c3ccccc3)nc2cc1C | 3.1 | -4 | 3 | 20 | 12
19 | Nc1ncnc2c1cnn2-c1ccccc1 | 2.0 | 0 | -3 | 4 | 1
20 | Cc1cc(C(=O)OCC(=O)c2cccc([N+](=O)[O-])c2)c2ccccc2n1 | 2.6 | -2 | 14 | 22 | 16

One compound at a time (already shown). Order of screens: UPR CHOP act | XBP1 UPR activ | tim10-1 inh | TIM10 inh | tim23-1 inh
Record of CCC(c1nnnn1Cc1ccco1)N1CCN(c2cc(Cl)ccc2C)CC1 (configuration not stated) : 0.2 | -2 | 39 | 35 | -1
Record of CC(C)CC1Nc2ncnc(N3CCN(c4ccccn4)CC3)c2N(Cc2ccc(Br)cc2)C1=O (configuration not stated) : 1.4 | 3 | 25 | 15 | 24
Record of COC(=O)c1c(-c2ccc(OC)cc2)sc2cc3c(cc12)OCO3 : 5.3 | 7 | 20 | 11 | 36
Record of COc1ccccc1OCC(=O)NNC(=S)NC(=O)c1ccco1 : 0.0 | -3 | 17 | 9 | -3

Pulled by compound from the entries so far (seven):
item | SMILES | UPR CHOP act | XBP1 UPR activ | tim10-1 inh | TIM10 inh | tim23-1 inh
19 | Nc1ncnc2c1cnn2-c1ccccc1 | 2.0 | 0 | -3 | 4 | 1
9 | CC(=O)Nc1ccc(Oc2cc(N)cc([N+](=O)[O-])c2)cc1 | -2.5 | 2 | 15 | 11 | -6
13 | CC(C)CC1Nc2ncnc(N3CCN(c4ccccn4)CC3)c2N(Cc2ccc(Br)cc2)C1=O (configuration not stated) | 1.4 | 3 | 25 | 15 | 24
17 | Fc1ccc(-n2cc(-c3ccccc3)c3c(N4CCOCC4)ncnc32)cc1 | -0.4 | 0 | 32 | 24 | 33
1 | O=C1C(Cc2ccccc2)Nc2ncnc(N3CCOCC3)c2N1Cc1ccc(Br)cc1 (configuration not stated) | 1.6 | -1 | 31 | 20 | 21
16 | COC(=O)c1c(-c2ccc(OC)cc2)sc2cc3c(cc12)OCO3 | 5.3 | 7 | 20 | 11 | 36
15 | COc1ccccc1C(=O)NNC(=O)c1nn(Cc2ccccc2)c(=O)c2ccccc12 | -1.2 | 2 | 23 | 8 | 23

Continued:
item | SMILES | UPR CHOP act | XBP1 UPR activ | tim10-1 inh | TIM10 inh | tim23-1 inh
21 | O=C1NCCOC(=O)[C@@H](Cc2ccc(F)cc2)CC/C=C/C[C@H]1CC(=O)N(CCO)Cc1ccccc1 | -1.9 | 0 | 0 | 4 | -10
22 | Cc1cc(NN)nc2ccc(Cl)cc12 | 4.2 | -5 | 15 | 15 | 1
23 | N#CC(=Cc1ccc(O)cc1)C(N)=C(C#N)C#N | -1.5 | -6 | -11 | 11 | -19
24 | CCN1/C(=C/C(C)=O)Sc2ccc(OC)cc21 | -0.2 | -2 | 36 | 15 | 29

Assay outcomes: PubChem BioAssay, Sanford-Burnham Center for Chemical Genomics
